2A StopGo: High Throughput Screening for Foot and Mouth Disease Virus Antivirals. human cells with a luciferase reporter of 2A StopGo recoding; control for the full effect not named in the record. Potency, µM (top dose mostly 57.9 µM), inactives show top-dose signal change, negative = less light. 410,000 compounds, 1.2% hits. AID 1159524, 2015; active = well fitted falling curve with a large enough effect; inconclusive = small, poorly fitted or top-dose-only effect; inactive = no such curve, though single readings can be large or run the other way; tested in HEK293T cells; further: nearly all actives have a fitted effect of over 45% in size; luciferase light after 4 h
RE007 growth inh: qHTS Assay for Inhibitors of the HIV-1 protein Vpr | Potency, µM (top dose mostly 92.2 µM), for inactives: at the top dose activity change, negative = less growth | 360,000 compounds, 0.21% hits | S. pombe RE007 Vpr strain, BacTiter-Glo ATP luminescence, 24 h; control for the full effect not named in the record; active = well fitted falling curve with a large enough effect; inconclusive = small, poorly fitted or top-dose-only effect; inactive = no such curve, though single readings can be large or run the other way;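 further: nearly all actives have a fitted effect of over 50% in size; the assay follows cell death caused by Vpr and the record does not say whether a fall means rescue or toxicity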
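Fission yeast strain RE007, carrying one chromosomally integrated HIV-1 vpr copy, was seeded at OD 0.01 in PMG+AL medium with 23 nL pinned compound. After 24 h at 30 °C and 99% humidity, viability was read by BacTiter-Glo luminescence.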
* = called active by the depositor; ? = inconclusive; [ ] = remark or other dose. On the % scale 0 is the no-effect control and ±100 the full control effect; potency means the concentration at half of the fitted maximal effect. This is a subset, so the mix of outcomes need not match the whole.

SMILES,2A StopGo,RE007 growth inh
CCCOc1ccc(F)cc1-c1cc(C(=O)Nc2cc(OC)c(OC)c(OC)c2)[nH]n1,?,10%
Cc1cccc(S(=O)(=O)NC(=O)C2(C)CCN2C(=O)CC2CCCCC2)c1 (stereo not drawn),-10%,19%[18.4 µM]
CSc1ccccc1NC(=O)CN(C)C(=O)C(C)SCc1nc2sc(C)c(C)c2c(=O)[nH]1 (stereo not drawn),-4%,-2%
CC1(CSc2ccccc2)CC(=O)N1 (stereo not drawn),-4%,-15%
COc1cccc(NC(=O)C2(C)CCN2CCc2ccccc2)c1 (stereo not drawn),0%,-13%
COc1ccc(-c2ccccc2)cc1NC(=O)[C@@H]1O[C@H](CO)[C@H](O)[C@H](O)[C@H]1O,42%[activator],7%[18.4 µM]
CC1(C(=O)NS(=O)(=O)C2CC2)CCN(C(=O)c2cccc(Cl)c2)C1 (stereo not drawn),-13%,11%
CCc1nc2ccc(C(=O)NCC3CCCCC3)cn2c1N(C)Cc1ccc(OC)cc1,-24%,-19%
NC(Cc1ccc(F)cc1)c1csc(Nc2ccc(C(=O)c3ccccc3)cc2)n1 (stereo not drawn),?,-4%
OCc1cccc(-c2csc(C(O)c3ccccc3)n2)c1 (stereo not drawn),27%,10%
CC1(C(=O)Nc2ccc3nc[nH]c3c2)CCN1C(=O)C1(c2ccccc2)CCCC1 (stereo not drawn),3%,1%[18.4 µM]
O=C(NC(c1ccc2ccccc2n1)c1cccs1)C1CCN(Cc2cccc(C(F)(F)F)c2)CC1 (stereo not drawn),-19%,-9%
CCCCN1CC[C@H]2C=CC[C@@H](C(=O)Nc3nccs3)[C@H]2C1=O,-12%,-4%
CCOC(=O)c1cc2c(c(-c3ccccc3)n1)[C@H](CCO)N(S(=O)(=O)C(C)(C)C)C2,-18%,3%
COc1cc(C)ccc1OCc1cc(C(=O)NC(c2ccccn2)C(F)(F)F)no1 (stereo not drawn),-13%,-13%
O=C(N/N=C/c1ccc(N2CCOCC2)s1)c1ccc(O)cc1,24%,3%
CCCCN(C)c1c(C)nc2ccc(C(=O)Nc3ccc(OC)c(OC)c3)cn12,?,-16%
Cc1ccc(CC2(C)C(=O)Nc3c(Cl)ccc(Cl)c32)cc1 (stereo not drawn),0%,-15%
COc1ccc(NC(=O)CCCOc2ccc(C)cc2)cc1S(=O)(=O)N1CCCCC1,?,13%
CCOc1ccc(CCN2C(=S)N([C@@H](CC(C)C)CN3CCCC3CN3C(=S)NC[C@@H]3Cc3ccc(O)cc3)C[C@@H]2CC(C)C)cc1 (stereo partly drawn),-26%,-7%
COc1ccc(NC(=O)N(C)C[C@@H]2OCc3cn(nn3)CCCC(=O)N([C@H](C)CO)C[C@H]2C)c(OC)c1,0%,?
C[C@@H](O)CNC(=O)c1[nH]cnc1C(=O)Nc1cccc(Cl)c1,-21%,5%
Cc1cc(C)cc(CC(=O)N2CCC2(C)C(=O)NS(=O)(=O)c2ccccc2C)c1 (stereo not drawn),-11%,-4%[18.4 µM]
COc1ccc(CNC(=O)C2CCN(S(=O)(=O)c3ccc(N4CCCC4=O)cc3)CC2)cc1,?,1%
Cc1cccc(-c2ccc3c(c2)C2CC3CCN2)c1 (stereo not drawn),-24%,-3%
CC(C)(C)c1ccccc1NC(=O)Nc1nc(C(N)c2ccccc2)cs1 (stereo not drawn),0%,4%
OC(c1ccc(-c2ccccc2)cc1)c1ncc(-c2cccc(F)c2)[nH]1 (stereo not drawn),1%,2%
CCCS(=O)(=O)NC(=O)C1(C)CCN(C(=O)c2cccc3ccccc23)C1 (stereo not drawn),-11%,1%
CCCC#Cc1cnc2c(c1)C(=O)N([C@H](C)CO)C[C@@H](C)[C@@H](CN(C)C(=O)Nc1cccc(F)c1)O2,8%,-14%
NC(=O)c1cccc(-c2coc3c(C(=O)NC4CCCCC4)cccc23)c1,?,-15%

Compound profiles, as listed above. Order of screens: 2A StopGo, RE007 growth inh
CCCC#Cc1cnc2c(c1)C(=O)N([C@H](C)CO)C[C@@H](C)[C@@H](CN(C)C(=O)Nc1cccc(F)c1)O2 is listed as 8%, -14%
CCCOc1ccc(F)cc1-c1cc(C(=O)Nc2cc(OC)c(OC)c(OC)c2)[nH]n1 is listed as ?, 10%
Cc1cc(C)cc(CC(=O)N2CCC2(C)C(=O)NS(=O)(=O)c2ccccc2C)c1 (stereo not drawn) is listed as -11%, -4%[18.4 µM]

The results go on.
SMILES,2A StopGo,RE007 growth inh
COC(=O)C1=C(c2ccccc2)C[C@@H]2CC[C@H]1N2C(=O)N1CCC(O)CC1,-11%,-2%
COc1ccc2c(c1)OC[C@H]1[C@H]2N2C(=O)c3ccc(F)cc3NC(=O)[C@@]2(C)[C@H]1c1ccccc1,?,-10%
CN(C)S(=O)(=O)n1cc(/C=C(\NC(=O)c2ccccc2F)C(=O)NCCN2CCOCC2)c2ccccc21,-14%,-3%
CCOC(=O)[C@]12CCC=C1N(Cc1ccc3c(c1)OCO3)C(=O)[C@H](CC(=O)NCc1cccc3ccccc13)C2,-11%,-7%
O=C(NC1CCCCC1)C(c1ccncc1)n1c(=O)c(-c2cc3ccccc3[nH]2)nc2ccccc21 (stereo not drawn),13%,1%
CCOC(=O)C1=C(C(=O)OCC)N(Cc2ccccc2)CCC1=O,-16%,-12%
COc1ccc(OCc2nnc(SCC(=O)Nc3oc(C)c4c(C)n[nH]c(=O)c34)n2C)cc1,-15%,3%
CSc1ccc(CN2CCC(C)(Oc3ccccc3C)C2)cc1 (stereo not drawn),-20%,-14%
CC(C)C1CC2=C(C(=O)OC(C)(C)O2)C(c2ccc(F)cc2)O1 (stereo not drawn),0%,4%
CCOC(=O)[C@]12CCCC=C1N(Cc1ccc(Cl)cc1Cl)C(=O)[C@H](CC(=O)NCc1ccc(C)o1)C2,-10%,3%
NC(=O)C(CCc1nc2ccccc2[nH]1)NS(=O)(=O)c1ccccc1 (stereo not drawn),0%,-6%
CC(=O)N1C[C@H]2CON(C)[C@H]2C[C@H]1c1cccc(-c2ccccc2)c1,-11%,-21%
CN(Cc1ccccc1)c1cc2c(c3c1ccn3C)C1CCC2O1 (stereo not drawn),0%,?
COc1ccc(C(=O)c2[nH]c(N)c(C(=O)NCCc3c[nH]c4ccccc34)c2-c2ccc(Br)cc2)cc1,-17%,-12%
CC(C(c1ccc2c(c1)OCO2)c1c(N)n(C)c(=O)n(C)c1=O)[N+](=O)[O-] (stereo not drawn),-15%,-20%
CCOC(=O)CC1(C)Oc2ccccc2N1S(=O)(=O)c1ccc(C)cc1 (stereo not drawn),-20%,-26%
Cc1ccc(C)c(C(O)c2ncc(-c3ccc(C(F)(F)F)cc3)[nH]2)c1 (stereo not drawn),-15%,1%[18.4 µM]
CCOC(=O)C1(C)CCCN(C(=O)c2ccc3ccccc3c2)C1 (stereo not drawn),24%,12%
CCN(CC(=O)Nc1c(F)cccc1F)C(=O)CCCN1C(=O)c2cccc3cccc(c23)C1=O,-25%,4%
CC(=O)C(=Cc1ccccc1)c1ccccc1,0%,-15%
O=S(=O)(c1ccc(Cl)cc1)N1Cc2ccccc2-n2nncc2C1,-28%,4%
COc1ccc([C@H]2/C=C\CN(S(=O)(=O)/C=C/c3ccccc3)[C@@H](C)C(=O)N2Cc2ccc(F)cc2)cc1,-9%,-4%
COc1ccc2c([N+](=O)[O-])c(N3CCOCC3)[nH]c2c1,0%,-4%
CCOC(=O)C1=C[C@@H](C(C)(C)C)N(S(=O)(=O)c2ccc(C)cc2)[C@H]1c1ccccc1,?,2%
CCCC(=O)N1CCC1(C)C(=O)Nc1ccccc1-c1ccccc1 (stereo not drawn),-9%,3%
O=C(O)c1cccc(-c2csc(C(O)c3ccc(F)cc3)n2)c1 (stereo not drawn),-11%,5%
CC(=O)c1ccc(OCC(=O)Nc2nnc(C3CC3)s2)cc1,-17%,0%
COc1ccc(OC)c(S(=O)(=O)Nc2cccc3c(O)cccc23)c1,34%[activator],-19%
CNc1ncnc2c1ncn2[C@H]1CN(CCOC)C[C@@H](CO)O1,-17%,16%
COc1ccc(S(=O)(=O)Nc2ccc3c(c2)C(=O)N([C@H](C)CO)C[C@H](C)[C@@H](CN(C)S(=O)(=O)c2ccc(OC)cc2)O3)cc1,-8%,8%

Entries above that contain a furan ring, fused or not (3):
SMILES,2A StopGo,RE007 growth inh
NC(=O)c1cccc(-c2coc3c(C(=O)NC4CCCCC4)cccc23)c1,?,-15%
COc1ccc(OCc2nnc(SCC(=O)Nc3oc(C)c4c(C)n[nH]c(=O)c34)n2C)cc1,-15%,3%
CCOC(=O)[C@]12CCCC=C1N(Cc1ccc(Cl)cc1Cl)C(=O)[C@H](CC(=O)NCc1ccc(C)o1)C2,-10%,3%

Next results
SMILES,2A StopGo,RE007 growth inh
NC(CO)c1csc(NC(=O)Nc2ccccc2Cc2ccccc2)n1 (stereo not drawn),-28%,6%
CC(C)C[C@H]1CN(CCCC[C@H]2CNC(=O)C(=O)N2CCC2CCCCC2)C(=O)C(=O)N1CCC1CCCCC1,35µM*,10%
Cc1cn(CC(=O)N2CCN(c3ccccn3)CC2)c(=O)[nH]c1=O,-1%,8%
COc1ccccc1Cc1c(-c2cccc(Br)c2)nc2ccc(Br)cn12,29%,-10%
CCn1cc(CN2CCCC(C(=O)Nc3cccc(-n4cccn4)c3)C2)cn1 (stereo not drawn),-18%,-8%
CC1(C(=O)NS(=O)(=O)C2CC2)CCN(C(=O)c2ccc(F)c(Cl)c2)C1 (stereo not drawn),-10%,-5%
CCC(C)Sc1cc(-c2nc3ccc(C)cn3c2NCc2ccccc2)ccc1OC (stereo not drawn),16µM*,-14%
CCCc1nc2ccccc2n1C(CC)C(=O)NC(C)(C)C (stereo not drawn),0%,-21%
CC(C)[C@@H]1Cc2[nH]n(C)c(=O)c2[C@H](c2ccc(F)cc2)O1,-14%,-4%
COc1ccc(NC(=O)c2cc(-c3ccc(F)cc3OC)n[nH]2)c(C)c1,9%,4%
CN(C)CCNc1cccc2sc3ccc(O)cc3c(=O)c12,-16%,-24%[18.4 µM]
Cc1ccc(-n2c(=S)[nH]c3ccc(C)cc3c2=O)cc1,-3%,1%
O=C(Nc1cc(F)ccc1F)c1ccc2c(=O)n3c(nc2c1)CCC3,56%[activator],2%
N#CC(C#N)c1ccnc2ccccc12,-29%,-20%
Cc1ccccc1-c1cccc([C@@H]2C[C@H]3[C@H](CON3C)CN2S(=O)(=O)c2ccccc2C)c1,?,4%
CC(C)(C)OC(=O)N(CCc1ccccc1)Cc1cccc(OCc2cccc(NC(=O)C3CCCC3)c2)c1,-20%,0%
COc1ccc(-c2coc3c(C(=O)NCCN(C)C)cccc23)c(C)c1,-22%,-20%
COc1ccc(C(C)=O)cc1CC1(C)C(=O)Nc2ccc(-c3cccc(C(F)(F)F)c3)cc21 (stereo not drawn),0%,3%[18.4 µM]
CN(Cc1ccccc1)S(=O)(=O)c1ccc(Cl)c(C(=O)N2CCOCC2)c1,-18%,-11%
CC1(C(=O)NS(=O)(=O)c2ccc(F)cc2F)CCN1C(=O)CC1CC1 (stereo not drawn),-9%,7%[18.4 µM]
Cc1cccc(N(C)c2cc(-c3ccc(F)cc3)nc3ccnn23)c1,-24%,0%
OC[C@@H]1CN(Cc2ccc(F)cc2)C[C@H](n2cnc3c(Nc4ccccc4)ncnc32)O1,-1%,7%
COCCCN(Cc1cc(OC)c(OC)c(OC)c1)C(=S)Nc1cccc(SC)c1,-18%,7%
CCC(c1nnnn1-c1ccc2c(c1)OCCO2)N1CCN(C/C=C/c2ccccc2)CC1 (stereo not drawn),-26%,-18%
COc1ccc(C(CNC(=O)c2cccc(S(=O)(=O)Nc3ccc(Br)cc3)c2)N(C)C)cc1 (stereo not drawn),30%,13%
CSCCNC(=O)C1(C)CCN1C(=O)c1ccc(C(C)(C)C)cc1 (stereo not drawn),?,-9%[18.4 µM]
Cc1ccc(C(NC(=O)C2CCN(CCCOc3ccccc3)CC2)c2ccccn2)cc1 (stereo not drawn),2%,-14%[18.4 µM]
CC1Cc2ccccc2N1C(=O)c1ccc(Br)o1 (stereo not drawn),68%[activator],-18%
O=C(Nc1ccccc1)c1cc(C2CCCN(C(=O)C/C=C/c3ccccc3)C2)on1 (stereo not drawn),-12%,7%
CC(=O)Nc1ccc(-c2ccnc3c2CC(C(=O)NCC2CC2)O3)cc1 (stereo not drawn),-11%,9%[18.4 µM]
COc1cc(C(C)n2nnc3ccccc32)ccc1O (stereo not drawn),-28%,1%
CCOC(=O)[C@]12CCCC=C1N(Cc1cccc3ccccc13)C(=O)[C@H](CC(=O)N1CCN(C(=O)C3CC3)CC1)C2,-22%,14%
COc1cc(OC)nc(C(NC(=O)C2CCN(Cc3ccc(Oc4ccccc4)cc3)CC2)c2ccccc2C)n1 (stereo not drawn),-3%,-6%[18.4 µM]
CC(=O)c1ccc(OCC(=O)N(C)C2CCS(=O)(=O)C2)cc1 (stereo not drawn),-19%,14%

Screens from PubChem.
